# Screens (PubChem BioAssay)
# GIRK2 act = GIRK2 channel activation | P48051 | HEK293-GIRK2 thallium flux, Thallos fluorescence | calls only for hits at 25 µM | 63,000 tested, 0.05% active | AID 1259325;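 active = among the strongest 0.2% of first-round signals and kept after retests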;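 note: first round at about 10 µM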
# Target sequence (P48051 whole entry, looked up): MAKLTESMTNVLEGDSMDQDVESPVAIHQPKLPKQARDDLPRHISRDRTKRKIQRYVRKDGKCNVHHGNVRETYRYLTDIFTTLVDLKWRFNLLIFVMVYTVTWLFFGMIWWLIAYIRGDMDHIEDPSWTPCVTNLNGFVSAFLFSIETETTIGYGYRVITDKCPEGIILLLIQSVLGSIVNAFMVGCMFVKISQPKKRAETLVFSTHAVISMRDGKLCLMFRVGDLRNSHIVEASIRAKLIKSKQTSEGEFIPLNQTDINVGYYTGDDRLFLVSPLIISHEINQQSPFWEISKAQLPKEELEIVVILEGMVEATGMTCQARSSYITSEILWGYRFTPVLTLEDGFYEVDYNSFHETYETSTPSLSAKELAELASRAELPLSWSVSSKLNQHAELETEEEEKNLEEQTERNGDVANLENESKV
# Calls only; i = inactive. An excerpt, so the mix of outcomes need not match the whole.
GIRK2 act | mol
i | Cc1ccc(C)c(S(=O)(=O)C(C#N)c2nc3ccccc3nc2N2CCN(C)CC2)c1 (centres undefined)
i | COc1cccc(-c2nc(C#N)c(N3CCN(C(=O)c4cccs4)CC3)o2)c1
i | C=C(C)COc1ccc2c(=O)c(Oc3ccc(OC)cc3)coc2c1
i | O=C(NCc1cccc2ccccc12)Nc1ccc2c(c1)CCCN2C(=O)c1ccccc1
i | O=C(NCc1cccc(Cl)c1)c1cccn1Cc1nc(-c2ccccc2)no1
i | COc1ccc(N2CC(c3nc(-c4ccc(OC)c(OC)c4)no3)CC2=O)c(OC)c1 (centres undefined)
i | CC(C)(C)C(=O)Nc1cnc(-n2cccn2)nc1
i | COc1ccccc1-c1cc(C(=O)N2CCCC(c3nnc(-c4cccs4)o3)C2)[nH]n1 (centres undefined)
i | O=C(NCc1cccs1)N1CCN(c2nc3ccc([N+](=O)[O-])cc3s2)CC1
i | NC(=O)C1CCN(CC(=O)Nc2oc3ccccc3c(=O)c2-c2ccc(Cl)cc2)CC1
i | COc1ccccc1-n1nnc(C(=O)Nc2cccc(C(F)(F)F)c2)c1-c1ccccn1
i | CN1CCN(Cc2ccc(-c3cc4ncnc(Nc5ccc(OCc6cccc(F)c6)c(Cl)c5)c4s3)o2)CC1
i | CCC1CCCCN1C(=O)c1cc2c(=O)n3cc(C)ccc3nc2n1Cc1ccccc1 (centres undefined)
i | Cc1sc2ncnc(SCC(=O)Nc3nsc(-c4ccccc4)n3)c2c1C
i | O=S(=O)(NCCC(O)c1ccc2c(c1)OCO2)c1ccccc1Cl (centres undefined)

# 3 compounds already listed, arranged by SMILES length, low to high.
GIRK2 act | mol
i | Cc1sc2ncnc(SCC(=O)Nc3nsc(-c4ccccc4)n3)c2c1C
i | CCC1CCCCN1C(=O)c1cc2c(=O)n3cc(C)ccc3nc2n1Cc1ccccc1 (centres undefined)
i | CN1CCN(Cc2ccc(-c3cc4ncnc(Nc5ccc(OCc6cccc(F)c6)c(Cl)c5)c4s3)o2)CC1

# Later entries.
GIRK2 act | mol
i | O=C(Cc1cccs1)Nc1cc(N2CCCC2)ncn1
i | COc1ccc(-c2nc(-c3cn(CC(=O)Nc4ccc(C)c(Cl)c4)cn3)no2)cc1
i | O=C(NCCn1ncccc1=O)Nc1ccc(F)c(Cl)c1
i | COc1ccccc1-c1cc(C(=O)NCc2ccco2)[nH]n1
i | O=C(NCc1ccccc1C(F)(F)F)c1nnn(-c2ccccc2)c1-c1ccccn1
i | COc1ccccc1Nc1nnc(Cc2ccc(C)cc2)c(=O)[nH]1
i | Cc1c(CNS(=O)(=O)c2ccccc2F)sc2nc(-c3ccc(F)cc3)cn12
i | Cn1cc(C2=C(c3c4n(c5ccccc35)CCCC4)C(=O)NC2=O)c2ccccc21
i | O=C(NCc1ccccn1)C1CN(c2nc3ccc(F)cc3s2)C1
i | CC(C)c1ccc(OCC(O)CN2CCN(Cc3ccc4c(c3)OCO4)CC2)cc1 (centres undefined)
i | CCOCC(=O)Nc1cccc2ccc(-n3ccnc3)nc12
i | O=C(Nc1ccc(Br)cc1)c1cccc(S(=O)(=O)N2CCOCC2)c1
i | CCc1cc(=O)n(CC(=O)NCc2ccco2)c(N)n1
i | CSc1ccccc1NC(=O)c1cc(=O)c(OCc2ccccc2)co1
i | CCCNC(=O)CCCCn1c(=O)c2ccccc2n(CC(=O)NCc2ccc3c(c2)OCO3)c1=O

# Additional results follow:
GIRK2 act | mol
i | NS(=O)(=O)c1ccc(C(=O)NCCNc2ccc(Nc3cccnc3)nn2)cc1
i | COc1ccc(S(=O)(=O)N2CCCOC2CNC(=O)C(=O)NC2CCCCC2)cc1 (centres undefined)
i | O=C(CNC(=O)c1ccc(=O)[nH]c1)NCC1CCCO1 (centres undefined)
i | Cc1cccc(C(=O)Nc2c(C(=O)NCc3ccc(C)o3)[nH]c3ccc(C)cc23)c1
i | Fc1cc(F)cc(-c2nnc(Cc3nc(-c4ccc5c(c4)OCO5)no3)o2)c1
i | Cc1cccn2c(=O)cc(OCC(=O)Nc3ccc(Cl)cc3Cl)nc12
i | O=C(Cn1cnnn1)Nc1cc(N2CCOCC2)ncn1
i | O=C(Nc1sc2c(c1-c1nc3ccccc3s1)CCN(Cc1ccccc1)C2)c1ccco1
i | CCOC(=O)N1CCN(C(=O)CCCn2c(=O)[nH]c3ccccc3c2=O)CC1
i | Cc1noc(CNC(=O)C2CCN(C(=O)COc3ccccc3F)CC2)n1
i | O=C(NCCOc1ccccc1)c1ccc(-n2cccn2)nn1
i | C=C(C)Cn1c(=O)c2c(nc(Br)n2C(C)C(C)=O)n(C)c1=O (centres undefined)
i | Cn1c(CN2CCN(C(=O)c3ccc(-n4cccc4)cc3)CC2)nc2ccccc21
i | Cc1ccc(NC(=O)Cn2c(C)cc(C)c(-c3nc(-c4ccccc4)no3)c2=O)c(C)c1
i | COc1ccc(NC(=O)C2CCN(C(=O)NCc3cccs3)CC2)cc1Cl

# (list continues)
GIRK2 act | mol
i | Cc1c(C(=O)N2CCCC(C)C2)nnn1-c1nccs1 (centres undefined)
i | C[N+]1(CC(O)COc2ccc(C34CC5CC(CC(C5)C3)C4)cc2)CCCCCC1 (centres undefined)
i | CCCCCCCC/C=C\C/C=C\C/C=C\CCCC(=O)NCCO
i | Cn1nc(CNS(=O)(=O)Cc2cc(F)ccc2F)cc1-c1ccncc1
i | O=C(NCCNc1ccc(-n2cccc2)nn1)c1c(F)cccc1Cl
i | CCOC(=O)N1CCN(C(=O)CCC(=O)O)CC1
i | COC(=O)N1CCC(CNC(=O)C(=O)Nc2ccc3c(c2)N(C(=O)C(C)C)CCC3)CC1
i | Cc1cc(NC(=O)c2ccco2)n(-c2nc3c(cnn3-c3cccc(Cl)c3)c(=O)[nH]2)n1
i | O=C(NCCc1ccoc1)c1cc(C(F)(F)F)cc(C(F)(F)F)c1
i | COC(=O)c1ccc(Oc2coc3cc(OC(=O)c4ccc(OC)c(OC)c4)ccc3c2=O)cc1
i | CCOc1ccc(-n2nnc3c(=O)n(Cc4nc(-c5ccc(C)cc5)no4)cnc32)cc1
i | COc1ccc(OCc2noc(CNC(=O)C(C)n3nnc4ccccc4c3=O)n2)cc1 (centres undefined)
i | CCOC(=O)CCC(=O)N1CC(c2nc(-c3ccco3)no2)C1
i | Cn1cccc1CN(Cc1cccs1)C(=O)CSC1CCCC1
i | CCCN(CCC)C(=O)c1cc2c(=O)n3cc(C)ccc3nc2n1C

# (list continues)
GIRK2 act | mol
i | COc1cccc(S(=O)(=O)Nc2ccc(C(=O)Nc3ccc4c(c3)OCCO4)cc2)c1
i | Cc1ccc(NC(=O)Nc2cccc(C(F)(F)F)c2)cc1N1CCCC1=O
i | COc1cccc2cc(C(=O)N3CCC(Oc4ccc(C(F)(F)F)cn4)CC3)c(=O)oc12
i | CCOCCn1c(N2CCN(Cc3ccc(Br)cc3)CC2)nc2c1c(=O)[nH]c(=O)n2C
i | CCCc1ccc(S(=O)(=O)Nc2ccc3c(c2)CCCN3S(=O)(=O)CC)cc1
i | O=C(NCC1CCCCC1)c1cc(=O)c(OCc2ccccc2)co1
i | COc1ccc(S(=O)(=O)N2CCC(C(=O)Nc3nc(-c4ccccc4)cs3)CC2)cc1
i | Cc1cccc(CC(=O)Nc2ccc3c(c2)CC(=O)N3C)c1
i | CCCn1c(N2CCC(C(N)=O)CC2)nc2c1c(=O)n(C)c(=O)n2C
i | CC(C)C(=O)N1CCCc2cc(NC(=O)Nc3ccc(F)cc3)ccc21
i | Cc1cc2oc(=O)cc(CCl)c2cc1Cl
i | O=C(c1cc2cc(Cl)cc(Cl)c2oc1=O)N1CCN(c2cccc(C(F)(F)F)c2)CC1
i | O=C(/C=C/c1ccccc1)N1CCCSCC1CN1CCCC1 (centres undefined)
i | Cc1cc(N2CCN(C(=O)NCCOc3ccccc3)CC2)ncn1
i | CC(=O)N1CCC(C(=O)N2CC3(COC(C)(C)OC3)C2)CC1

# Brought forward from above: 4 compounds, followed by the next part.
GIRK2 act | mol
i | O=C(c1cc2cc(Cl)cc(Cl)c2oc1=O)N1CCN(c2cccc(C(F)(F)F)c2)CC1
i | O=C(/C=C/c1ccccc1)N1CCCSCC1CN1CCCC1 (centres undefined)
i | Cc1cc(N2CCN(C(=O)NCCOc3ccccc3)CC2)ncn1
i | CC(=O)N1CCC(C(=O)N2CC3(COC(C)(C)OC3)C2)CC1
i | CC(=O)c1cccc(NC(=O)c2ccc(COc3ccc(C)cc3)o2)c1
i | Fc1ccc(-n2ncc3c2ncn2c(-c4cccs4)nnc32)cc1
i | O=C(c1cnccn1)N1CCN(c2cc(-n3cccc3)ncn2)CC1
i | CC(C)NC(=O)Cn1c(=O)nc(-c2ccccc2)c2ccccc21
i | Cc1ccc(Cl)cc1N1CCN(C(=O)C2CCN(c3cc(Oc4ccccc4)ncn3)CC2)CC1
i | Cc1[nH]c2ccccc2c1C(=O)C(=O)Nc1c2c(nn1CC(=O)NCc1ccc(F)cc1)CSC2
i | CS(=O)(=O)N1CCN(C(=O)C2CCCN(c3ccc(-c4ccc(F)cc4)nn3)C2)CC1 (centres undefined)
i | Cc1cn2c3c(=O)n(CCN4CCOCC4)c(=O)n(C)c3nc2n1C1CCCCC1
i | CS(=O)(=O)C1CCN(C(=O)/C=C/c2ccco2)C1 (centres undefined)
i | Cn1cc(OCc2ccccc2)c(=O)cc1C(=O)Nc1ccc(OC(F)(F)F)cc1
i | CCC(C)CC(C)CC(CO)CC(C)/C=C(C)/C=C(/CC(C)C(=O)O)C(=O)O (centres undefined)
i | O=S(=O)(c1ccc2c(c1)CCN2S(=O)(=O)c1ccccc1)N1CCOCC1
i | Cc1cc(C)n(CCNC(=O)C(=O)Nc2ccc3c(c2)N(S(=O)(=O)c2cccs2)CCC3)n1
i | COc1ccc(C(=O)NCCS(=O)(=O)NC(C)c2ccccc2)cc1 (centres undefined)
i | O=C(c1cc(-c2ccco2)on1)N1CCC(Oc2nc3ccccc3s2)CC1

# Going on with the list.
GIRK2 act | mol
i | Cc1ccc(OCc2ccc(-c3nc(C#N)c(N4CCOCC4)o3)o2)cc1
i | O=C(CSc1nc2c(sc(=S)n2-c2ccc(Cl)cc2)c(=O)[nH]1)Nc1ccc(F)cc1
i | CC(Cc1cccs1)NC(=O)c1ccno1 (centres undefined)
i | O=C1CC(c2cccs2)CC(=O)N1Cc1cccc2ccccc12
i | O=C(CSc1nnc2ccccn12)Nc1cccc(-c2nc3ccccc3s2)c1
i | COC(=O)c1ccc(S(=O)(=O)N2CCN(Cc3cnc4ccccn34)CC2)cc1
i | COc1cccc(OC)c1C(=O)NCC(O)C1CCCCC1 (centres undefined)
i | CNC(=O)C1Cc2ccccc2N1C(=O)c1ccc(S(=O)(=O)N2CCCC2)cc1 (centres undefined)
i | O=S(=O)(c1cccnc1)N1CCN(CC(O)c2cccs2)CC1 (centres undefined)
i | Cn1cc(C2=C(c3ccsc3)C(=O)NC2=O)c2ccccc21
i | CCCCCCCOC(=O)C(C#N)c1nc2ccccc2nc1N1CCOCC1 (centres undefined)
i | CC(C)(Oc1ccc(Cl)cc1)C(=O)N1CC(c2nc(-c3ccc[nH]c3=O)no2)C1
i | CNCC[C@H](Oc1cccc2ccccc12)c1cccs1
i | O=C(NCc1ccc(F)cc1)N1CCCC(c2nnc(Cc3ccc(F)cc3)o2)C1 (centres undefined)
i | Cc1nn(C)cc1S(=O)(=O)NCCN1CCOCC1

# New compounds follow
GIRK2 act | mol
i | COc1ccc(-c2coc3cc(O)cc(OC)c3c2=O)cc1OC
i | N#Cc1ccc(C(=O)N(Cc2ccsc2)CC(F)(F)F)cc1
i | COc1ccc(-n2c(C)cn3c4c(=O)n(CC(=O)OCc5ccccc5)c(=O)n(C)c4nc23)cc1
i | COCCn1c(-c2ccc([N+](=O)[O-])cc2)nc2nc3ccccc3nc21
i | CS(=O)(=O)N1CCN(CCn2ccnc2-c2ccccc2)CC1
i | COc1cc(OC)c(OC)cc1/C=C1\Oc2cc(OC(=O)N3CCOCC3)ccc2C1=O
i | CC(Oc1ccccc1F)C(=O)Nc1cc(N2CCN(c3ccccc3)CC2)ncn1 (centres undefined)
i | CC(C)(C)c1cc(Br)ccc1OCC(=O)O
i | CCn1c(=O)c2ccccc2n(Cc2nc(-c3ccc(OC)c(OC)c3)no2)c1=O
i | COc1ccc(/C=C2\Oc3cc(OC(C)C(=O)O)ccc3C2=O)cc1OC (centres undefined)
i | O=C(c1ccc(Cn2c(=O)[nH]c3ccccc3c2=O)cc1)N1CCN(Cc2ccc3c(c2)OCO3)CC1
i | COc1ccc(-c2noc(Cn3c(=O)n(-c4ccc(C)c(C)c4)c(=O)c4ccccc43)n2)c(OC)c1
i | COC(=O)c1ccc(NC(=O)CSc2nnc(-c3cccnc3)o2)cc1
i | COc1ccc2c(c1)c(CC(=O)Nc1ccc(-c3ccccc3)cc1)c(C)n2C(=O)c1ccc(Cl)cc1
i | CC(C)Cc1ccc(-c2ccc(=O)n(CC(=O)NCCC3=CCCCC3)n2)cc1

# Remaining list, next part:
GIRK2 act | mol
i | Cc1noc(C)c1S(=O)(=O)NCC1CCN(C(=O)c2ccoc2)CC1
i | C[C@@H](Cn1ncnn1)Nc1ncc2cc(Oc3ccc(F)cc3F)c(=O)n(C)c2n1
i | COc1ccc(OCC(O)Cn2c(NCCC(C)C)nc3c2c(=O)[nH]c(=O)n3C)cc1 (centres undefined)
i | Cc1cccc(CC(=O)Nc2ccc3c(c2)CC(=O)N3)c1
i | COc1ccc(NC(=O)CN2CCN(Cc3nc4ccccc4n3Cc3ccccc3)CC2)c(OC)c1

# Quoted from the entries so far for reference:
GIRK2 act | mol
i | COc1ccc(-c2noc(Cn3c(=O)n(-c4ccc(C)c(C)c4)c(=O)c4ccccc43)n2)c(OC)c1
i | COC(=O)c1ccc(NC(=O)CSc2nnc(-c3cccnc3)o2)cc1
i | COc1ccc2c(c1)c(CC(=O)Nc1ccc(-c3ccccc3)cc1)c(C)n2C(=O)c1ccc(Cl)cc1
i | CC(C)Cc1ccc(-c2ccc(=O)n(CC(=O)NCCC3=CCCCC3)n2)cc1
i | Cc1noc(C)c1S(=O)(=O)NCC1CCN(C(=O)c2ccoc2)CC1
i | C[C@@H](Cn1ncnn1)Nc1ncc2cc(Oc3ccc(F)cc3F)c(=O)n(C)c2n1
